# Source: PubChem BioAssay (National Center for Advancing Translational Sciences (NCATS))
# RE007 growth inh = less growth of the S. pombe RE007 Vpr strain | S. pombe RE007 Vpr strain, BacTiter-Glo ATP luminescence, 24 h; control for the full effect not named in the record | Potency, µM (highest dose often 92.2 µM), inactives show top-dose activity change, negative = less growth | 360,000 tested, 0.21% active; active = well fitted falling curve with a large enough effect; inconclusive = small, poorly fitted or top-dose-only effect; inactive = no such curve, though single readings can be large or run the other way;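 further: on the % scale 0 is the no-effect control and ±100 the full control effect; nearly all actives have a fitted effect of over 50% in size; the assay follows cell death caused by Vpr and the record does not say whether a fall means rescue or toxicity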
#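 Fission yeast RE007 carrying one integrated HIV-1 vpr copy, seeded at OD 0.01 in PMG+AL medium with 23 nL pinned compound. Grown 24 h at 30 degrees; viability read by BacTiter-Glo luminescence after 5 min.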
# SARS PLpro yeast = inhibitors of SARS-CoV papain-like protease in yeast. S. cerevisiae expressing SARS-CoV PLpro, growth rescue; control for the full effect not named in the record. Potency, µM (highest dose often 32.9 µM), without a hit: at the top dose activity, positive = growth rescue. 330,000 tested, 0.19% active. AID 485353; active means well fitted rising curve with a large enough effect; inconclusive means small, poorly fitted or top-dose-only effect; inactive means no such curve, though single readings can be large or run the other way; further: 0% is about no effect; nearly all actives have a fitted effect of over 55% in size; growth read by luminescence after 48 h
# StopGo reporter = FMDV 2A StopGo reporter, luciferase signal; 410,000 tested, 1.2% active; AID 1159524; human cells with a luciferase reporter of 2A StopGo recoding; control for the full effect not named in the record; Potency, µM (titrated, usually from 57.9 µM), without a hit: at the highest dose signal change, negative = less light; active = well fitted falling curve with a large enough effect; inconclusive = small, poorly fitted or top-dose-only effect; inactive = no such curve, though single readings can be large or run the other way; tested in HEK293T cells; further: on the % scale 0 is the no-effect control and ±100 the full control effect; nearly all actives have a fitted effect of over 45% in size; luciferase light after 4 h
# The depositor's hits bear a star; u = inconclusive; [ ] = another dose, or the depositor's remark. Potency means the concentration at half of the fitted maximal effect. Only part of the results is shown; rates above refer to the full screens.
structure	StopGo reporter	RE007 growth inh	SARS PLpro yeast
CCOC(=O)N1CCC(N(CCN(C)C)C(=S)Nc2ccccc2OCC)CC1	-10.7%	-7.2%	0.5%
C#CCOCCOCCOCCNc1nc(N2CCN(C(=O)CCCCCCCCCCNC(=O)[C@H](CCCCN)n3cc(C)nn3)CC2)nc(N2CCN(C(=O)CCCCCCCCCCNC(=O)[C@H](CCCCN)n3cc(CCCC(=O)O)nn3)CC2)n1	-22.5%	5.0%	5.9%
CC(CC(=O)N1CCN(S(=O)(=O)c2ccc([N+](=O)[O-])cc2)CC1)c1ccccc1 (stereo not drawn)	u	-1.1%	-3.5%
CCCCN(C(=O)c1cc2c(s1)CCCC2)c1c(N)n(CCC)c(=O)[nH]c1=O	-22.4%	-12.7%	2.5%
CN(CC(=O)Nc1ccccc1Cl)C(=O)COC(=O)c1ccc(C(F)(F)F)cc1	-25.0%	-3.1%	21.5%
CN(CC(=O)Nc1c(Cl)cccc1Cl)C(=O)Cn1[nH]c(=O)c2ccccc2c1=O	-9.8%	-25.0%	4.5%
Cc1c(NC(=O)c2cccc(NC(=O)COc3cccc(Br)c3)c2)c(=O)n(-c2ccccc2)n1C	u	-12.9%	-0.7%
COc1ccc(C2C(CC(=O)O)=C(Nc3ccccc3)C(=O)N2c2ccccc2)cc1 (stereo not drawn)	46.9%[activator]	-0.7%	-1.4%
COC(=O)[C@]1(Cc2ccccc2)N[C@H](CN(C)S(=O)(=O)c2ccc(-c3ccccc3)cc2)[C@@H]2C(=O)N(Cc3ccccc3)C(=O)[C@@H]21	-21.0%	4.7%	5.6%
COC(=O)c1c(-c2ccc(N(C)C)cc2)sc2ccc(OC)cc12	43.3%[activator]	-16.0%	0.9%
COc1ccc(N2CCN(C(=O)c3cccc(S(=O)(=O)N4CCCc5ccccc54)c3)CC2)cc1	-8.1%	-10.9%	8.6%
COCCNC(=O)N1[C@H]2CC[C@@H]1C(C(=O)OC)=C(c1ccc(-c3ccccc3)c(F)c1)C2	-13.4%	6.6%	-1.4%

# (more compounds)
structure	StopGo reporter	RE007 growth inh	SARS PLpro yeast
N#Cc1ccc(CN2CCN(c3ccc(S(=O)(=O)N4CCCC4)cn3)CC2)cc1	u	-5.0%	2.5%
CN(C(=O)CSc1nnnn1-c1ccc(O)cc1)C1CCCCC1	-0.2%	-4.4%	-0.8%
C[C@H]1CN([C@@H](C)CO)C(=O)Cc2cc(NC(=O)CCC(F)(F)F)ccc2O[C@H]1CN(C)S(C)(=O)=O	1.1%	-10.7%	19.8%
NC(=O)Cn1cc(C(=O)c2ccccc2F)c2ccccc21	1.3%	-15.7%	0.1%
O=C(NCCCN1CCCC1=O)c1cc2ccccc2o1	-1.8%	4.9%	-3.2%
COc1ccc(C(=O)N2CCN(S(=O)(=O)c3ccc(Br)cc3)CC2)cc1	-31.1%	-4.6%	1.7%
CCN(C(=O)c1ccc2c(c1)OCO2)C12CC3CC(CC(C3)C1)C2	u	24.8%	-13.9%
COc1cc(C(=O)NCC(c2cccs2)N2CCOCC2)cc(Br)c1OCc1ccccc1 (stereo not drawn)	-7.5%	26.6%	-12.3%
Cc1ccc(S(=O)(=O)NC[C@H]2O[C@@H](n3cnc4c(N)ncnc43)[C@H](O)[C@@H]2O)s1	-15.0%	-1.6%	-3.0%
O=C(COC(=O)c1ccc(Cl)c(S(=O)(=O)NCc2ccccc2)c1)NCC1CCCO1 (stereo not drawn)	19.4%	5.9%	-1.3%
COC(=O)C1=C(c2ccc(F)cc2F)C[C@@H]2CC[C@H]1N2C(=O)N1CCCCC1	-11.1%	1.2%	2.1%
O=C(c1n[nH]c2ccccc12)N1CCN(S(=O)(=O)c2ccc(Cl)cc2)CC1	-20.7%	9.2%	2.8%

# Going on with the list:
structure	StopGo reporter	RE007 growth inh	SARS PLpro yeast
CCC(=O)N(c1nnc(SCC(=O)Nc2ccccc2Cl)s1)C1CC1	3.2%	-6.3%	-2.5%[6.58 µM]
CCCCCCC1CC(=O)NC(=S)N1 (stereo not drawn)	-16.4%	-8.1%	10.0%
CCOC(=O)[C@@H]1[C@H]2COc3cc(OC)ccc3[C@@H]2N2C(=O)N(c3ccc(OC)cc3)C(=O)[C@@]12C	0.9%	-1.5%	-4.5%
O=C(CCc1nc2ccccc2c(=O)[nH]1)N1CCN(c2ccccc2Cl)CC1	u	7.4%	2.7%
O=C(CNC(=O)c1ccncc1)N/N=C/c1ccccc1[N+](=O)[O-]	36.0%[activator]	0.3%	0.2%
C=CCC[C@@H](Cc1ccc(F)cc1)C(=O)OC[C@H](Cc1c[nH]c2ccccc12)NC(=O)[C@@H](CC=C)CC(=O)N[C@H](CO)Cc1ccccc1	0.0%	3.8%	3.3%
Cc1nnc(SCC(=O)Nc2sccc2C(N)=O)s1	-19.6%	0.7%	5.2%
CC(c1ccccc1)N1CC(C(=O)Nc2ccc(F)cc2)CC1=O (stereo not drawn)	-18.1%	19.1%	1.2%
COCCN(CC(=O)Nc1cc(Cl)ccc1-n1cncn1)Cc1nc2ccccc2c(=O)[nH]1	-11.2%	16.8%	-5.1%
CN(Cc1ccccc1)C(=O)c1[nH]cnc1C(=O)Nc1nccs1	22.1%	15.0%	-23.9%
Cc1noc(C)c1C(=O)Nc1ccccc1N1CCCC1	-5.8%	-12.8%	-14.4%
Cc1ccc(C)c(-n2sc3ccc(F)cc3c2=O)c1	u	u	1.9%

# Other structures
structure	StopGo reporter	RE007 growth inh	SARS PLpro yeast
COc1cccc2sc3cc(NCC[C@@H]4CCCN4C)ccc3c(=O)c12	24.6%	u	4.5%
COc1cc(C(=O)OCC(=O)c2ccc(S(=O)(=O)N3CCCCC3)cc2)cc(OC)c1OC	u	-11.3%	0.6%
O=C(COC(=O)c1cccc(S(=O)(=O)N2CCOCC2)c1)Nc1ccc(Cl)cn1	1.1%	-1.7%	1.4%
O=C(OCc1nnc(-c2ccccc2)o1)C12CC3CC(CC(Br)(C3)C1)C2	9.7%	1.2%	-1.6%
COc1ccc(CNS(=O)(=O)c2ccc(F)c(C(=O)Nc3ccccc3OC)c2)cc1	0.6%	0.2%	4.2%
C[C@]12c3[nH]c4ccccc4c3CCN1C(=O)C(CC(=O)NCC13CC4CC(CC(C4)C1)C3)C[C@@H]2C(=O)N1CCOCC1 (stereo partly drawn)	u	5.2%	1.4%
O=C(CN1CCN(CC(=O)Nc2cccc(F)c2)CC1)NCC1(N2CCOCC2)CCCCC1	-6.2%	-16.5%	-6.0%
O=C(NC(=S)Nn1cnnc1)c1ccccc1	-15.7%	0.9%	1.7%
COc1cc(Cl)c(C)cc1NC(=O)CN1CCN(C(=O)C2CC2)CC1	-14.9%	11.4%	3.9%
c1ccc(CCCCN2C(Nc3ccccc3)=NC[C@@H]2Cc2ccccc2)cc1	u	-23.0%	1.8%
Cc1ccc(S(=O)(=O)N2[C@@H](c3ccccc3)C(C(=O)O)=CC[C@H]2c2ccc(Cl)cc2)cc1	29.1%	0.7%	2.8%
CC(C)(C)c1ccc(S(=O)(=O)N2CCN(CC(=O)N3CC(=O)Nc4ccccc43)CC2)cc1	-28.6%	-9.1%	-1.1%

# The list continues.
structure	StopGo reporter	RE007 growth inh	SARS PLpro yeast
Cc1ccc(S(=O)(=O)N(C)C)cc1NC(=O)C1CCCCN1S(=O)(=O)c1ccccc1 (stereo not drawn)	-5.5%	-7.6%	-9.1%
O=C(CNC(=O)c1ccco1)NNC(=O)c1ccc(Br)cc1	5.4%	28.3%	9.3%
CCCNC(=O)c1onc(CSc2ccccc2)c1C(=O)NCCC	15.9%	3.1%	3.2%
CCN(CC)S(=O)(=O)c1ccc(OC)c(NC(=O)CCc2c(C)noc2C)c1	-5.7%	1.8%	-6.4%
CCC1(C)NC(=O)N(CC(=O)NCC(=O)Nc2c(C)cc(C)cc2C)C1=O (stereo not drawn)	-16.4%	6.1%	-5.3%
COc1cccc(NC(=O)N2CCCC2C(=O)NCc2ccccc2)c1 (stereo not drawn)	1.7%	3.1%	6.8%
Cc1ccc2c(c1)C(=O)N1[C@H]3c4cc(C)ccc4OC[C@@H]3[C@H](c3ccccc3)[C@]1(C)C(=O)N2	u	13.1%	0.2%
CC(=O)C[C@H](O)CC(=O)[C@H]1OC(=O)CCCCCCCc2ccccc21	-6.2%	2.6%	-13.2%
Nn1c(SCC(=O)N2CCCCCC2)nnc1-c1ccco1	-13.5%	-2.1%	0.9%
CC(C)(C)NC(=O)CC1C[C@H](C(=O)N2CCCCC2)[C@@]2(C)c3[nH]c4ccccc4c3CCN2C1=O (stereo partly drawn)	-2.5%	21.5%	0.2%
Clc1cccc(-c2ccc(-c3nc4ccccn4c3NCc3ccccc3)cc2)c1	-21.0%	u	7.0%
CCOC(=O)[C@H]1[C@H]2COc3ccccc3[C@@H]2N2C(=O)c3cc(Cl)ccc3NC(=O)[C@@]12C	-24.7%	13.8%	-2.0%

# Part of the list above, with two lines to a compound.
# Every second line gives: StopGo reporter | RE007 growth inh | SARS PLpro yeast
- Cc1ccc(S(=O)(=O)N2[C@@H](c3ccccc3)C(C(=O)O)=CC[C@H]2c2ccc(Cl)cc2)cc1
  29.1% | 0.7% | 2.8%
- CC(C)(C)c1ccc(S(=O)(=O)N2CCN(CC(=O)N3CC(=O)Nc4ccccc43)CC2)cc1
  -28.6% | -9.1% | -1.1%
- Cc1ccc(S(=O)(=O)N(C)C)cc1NC(=O)C1CCCCN1S(=O)(=O)c1ccccc1 (stereo not drawn)
  -5.5% | -7.6% | -9.1%
- O=C(CNC(=O)c1ccco1)NNC(=O)c1ccc(Br)cc1
  5.4% | 28.3% | 9.3%
- CCCNC(=O)c1onc(CSc2ccccc2)c1C(=O)NCCC
  15.9% | 3.1% | 3.2%
- CCN(CC)S(=O)(=O)c1ccc(OC)c(NC(=O)CCc2c(C)noc2C)c1
  -5.7% | 1.8% | -6.4%
- CCC1(C)NC(=O)N(CC(=O)NCC(=O)Nc2c(C)cc(C)cc2C)C1=O (stereo not drawn)
  -16.4% | 6.1% | -5.3%
- COc1cccc(NC(=O)N2CCCC2C(=O)NCc2ccccc2)c1 (stereo not drawn)
  1.7% | 3.1% | 6.8%
- Cc1ccc2c(c1)C(=O)N1[C@H]3c4cc(C)ccc4OC[C@@H]3[C@H](c3ccccc3)[C@]1(C)C(=O)N2
  u | 13.1% | 0.2%
- CC(=O)C[C@H](O)CC(=O)[C@H]1OC(=O)CCCCCCCc2ccccc21
  -6.2% | 2.6% | -13.2%
- Nn1c(SCC(=O)N2CCCCCC2)nnc1-c1ccco1
  -13.5% | -2.1% | 0.9%
- CC(C)(C)NC(=O)CC1C[C@H](C(=O)N2CCCCC2)[C@@]2(C)c3[nH]c4ccccc4c3CCN2C1=O (stereo partly drawn)
  -2.5% | 21.5% | 0.2%
- Clc1cccc(-c2ccc(-c3nc4ccccn4c3NCc3ccccc3)cc2)c1
  -21.0% | u | 7.0%
- CCOC(=O)[C@H]1[C@H]2COc3ccccc3[C@@H]2N2C(=O)c3cc(Cl)ccc3NC(=O)[C@@]12C
  -24.7% | 13.8% | -2.0%

# More entries:
structure	StopGo reporter	RE007 growth inh	SARS PLpro yeast
Cc1c(Br)cnn1C(C)C(=O)N1CCN(c2ccccc2F)CC1 (stereo not drawn)	-17.0%	2.5%	4.8%
CC(OC(=O)CNC(=O)c1sc2ccccc2c1Cl)c1ccccc1 (stereo not drawn)	1.6%	-0.7%	5.3%
CC(NC(=O)c1ccc(S(=O)(=O)NCc2ccco2)cc1)c1ccc(F)cc1 (stereo not drawn)	-13.6%	9.7%	-1.8%
O=C1NC(=O)C(c2ccccc2)(c2ccc(O)cc2)N1 (stereo not drawn)	3.3%	-14.4%	3.1%
Cn1c(-c2cccc([N+](=O)[O-])c2)[n+](C)c2ccccc21	-0.2%	2.9%	1.2%
CCN(CC)C(=O)c1ccc(NC(=O)c2ccc(N3CCCC3=O)cc2)cc1	-2.9%	-10.8%	0.1%
CCN(CC)S(=O)(=O)c1ccc(=O)n(CC(=O)N2CCCc3cc(C)ccc32)c1	-30.8%	4.2%	0.6%[6.58 µM]
C=CC[C@@H](CC(=O)N[C@H](CO)Cc1ccccc1)C(=O)N[C@H](COC(=O)[C@@H](CC=C)Cc1ccc(F)cc1)C(C)(C)C	u	2.1%	-5.5%
CCC(C)(C)C1CCc2[nH]nc(C(=O)NCCN3CCOCC3)c2C1 (stereo not drawn)	-18.3%	-3.1%	5.4%
CCN1C(=O)[C@@H]2[C@@H](c3ccc(-c4ccc(C(C)=O)cc4)cc3)N3CCCC[C@@]3(C(=O)OC)[C@@H]2C1=O	0.0%	-3.0%	-0.8%
COC(=O)c1ccc(CSC2=NC[C@@H]3[C@@H]4C(=O)N(Cc5ccccc5)C(=O)[C@@H]4[C@](Cc4ccccc4)(C(=O)OC)N23)cc1	u	-4.1%	-16.4%
